CBX7 AlphaScr: inhibitors of human CBX7 binding to H3K27me3 peptide; AlphaScreen His6-CBX7 / biotin-H3K27me3 peptide binding; stronger effect = lower value; O95931; 66,000 compounds, 1.1% hits; normalised signal (fraction of DMSO) (test concentration not listed); in the data active = normalised signal below about 0.5;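 also: 100 nL library stock added to about 20 µL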
Target sequence (O95931 whole entry, looked up): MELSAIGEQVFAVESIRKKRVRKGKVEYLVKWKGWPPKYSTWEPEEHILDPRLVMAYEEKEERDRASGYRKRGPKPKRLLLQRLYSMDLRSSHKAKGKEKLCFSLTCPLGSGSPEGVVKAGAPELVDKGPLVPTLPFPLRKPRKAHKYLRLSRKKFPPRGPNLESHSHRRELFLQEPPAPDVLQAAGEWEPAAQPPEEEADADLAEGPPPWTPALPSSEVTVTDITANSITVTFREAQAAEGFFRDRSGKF
CBX7 AlphaScr z-score: recorded beside CBX7 AlphaScr, whose call it bears; z-score; measured here: z-score of CBX7 signal; some inactives read as strong as hits; reference of the scale not given here;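 same signal on another scale; lower means less binding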
* hit, by the source's call. Only part of the results is shown (hit frequency here may not be typical).

SMILES	CBX7 AlphaScr	CBX7 AlphaScr z-score
O=C(c1csc2c1CCCC2)N1CCN(c2cccc(C(F)(F)F)c2)CC1	1	0.49
CC1CCN(S(=O)(=O)c2ccc3c(c2)N(CC(=O)N2CCOCC2)C(=O)CS3)CC1	0.97	-1.2
CCCCn1c(=N)n(CC(O)COc2ccccc2C)c2ccccc21 (stereo not drawn)	0.94	-1.4
Cc1nnn(C23CC4CC(CC(CC(=O)Nc5ccc(F)c(Cl)c5)(C4)C2)C3)n1	1.1	3.2
CCOC(=O)N1CCC(Nc2c(NCCN3CCN(Cc4ccccc4)CC3)c(=O)c2=O)CC1	1	0.56
COc1cccc(-c2nn(C)c3sc(C(=O)NC4CCCCCC4)cc23)c1	1.1	1.6
COc1ccc(Nc2cc(C(=O)NCc3ccc(F)cc3)c3ccccc3n2)cc1OC	0.87	-2
CCOc1cc2c(cc1OCC)C(c1c(F)cccc1F)NCC2 (stereo not drawn)	0.87	-3.6
CC(C)(C)c1ccc2c(c1)N(CC(=O)NCCN1CCN(c3ccccc3)CC1)C(=O)CO2	0.88	-3.4
CCOC(=O)N1CCN(c2c(NCc3ccc(N(C)C)cc3)c(=O)c2=O)CC1	0.91	-1.6
CC(Oc1cccc(Cl)c1)C(=O)Nc1ccccc1C(=O)N1CCCCCC1 (stereo not drawn)	1.1	1.1
CC(=O)Nc1ccc(S(=O)(=O)n2c(C)nc3ccccc32)cc1	0.94	-0.54

(next part)
SMILES	CBX7 AlphaScr	CBX7 AlphaScr z-score
CC1CCN(S(=O)(=O)N2CCC(C(=O)Nc3nnc(N4CCN(C)CC4)s3)CC2)CC1	1.1	0.25
O=S(=O)(c1ccccc1)c1nc(-c2ccccc2Br)oc1N1CCCCCC1	0.8	-5.3
COc1ccc(-c2[nH]c(-c3ccc(C)cc3)nc2SCC(=O)Nc2ccccc2)cc1OC	0.7	-14
COc1cc2[nH]c(=O)n(CCC(=O)N3CCN(Cc4ccccc4)CC3)c(=O)c2cc1OC	1	0.97
CCCCCC(C)(C)NC(=O)CN1CCOCC1	0.95	-1.4
COc1ccc(OC)c(C2=NOC(C(=O)NCc3cccnc3)C2)c1 (stereo not drawn)	1	1.4
O=C(c1ccccc1)c1oc2ccccc2c1NC(=O)C1COc2ccccc2O1 (stereo not drawn)	1	0.36
COc1cccc(NC(=O)CNC(=O)Cn2cnc3sc4c(c3c2=O)CCCC4)c1	0.95	-1.6
Cc1ccc(CN2C(=O)CCC2C(=O)NC(C)C)cc1 (stereo not drawn)	1	2.2
CC(=O)N1CCc2cc(S(=O)(=O)NC(C(=O)Nc3ccc(C)cc3)C(C)C)ccc21 (stereo not drawn)	1	0.047
CCOCCCN1CC(C(=O)NCCc2ccc(C)cc2)CC1=O (stereo not drawn)	1	1.3
Cc1ccc(-c2cc(C(=O)N(C)Cc3cnn(C)c3C)c3cc(Br)ccc3n2)cc1	1.1	2

Some of the entries above in a different format.
COc1cccc(NC(=O)CNC(=O)Cn2cnc3sc4c(c3c2=O)CCCC4)c1
- CBX7 AlphaScr: 0.95
- CBX7 AlphaScr z-score: -1.6

Cc1ccc(CN2C(=O)CCC2C(=O)NC(C)C)cc1 (stereo not drawn)
- CBX7 AlphaScr: 1
- CBX7 AlphaScr z-score: 2.2

CC(=O)N1CCc2cc(S(=O)(=O)NC(C(=O)Nc3ccc(C)cc3)C(C)C)ccc21 (stereo not drawn)
- CBX7 AlphaScr: 1
- CBX7 AlphaScr z-score: 0.047

CCOCCCN1CC(C(=O)NCCc2ccc(C)cc2)CC1=O (stereo not drawn)
- CBX7 AlphaScr: 1
- CBX7 AlphaScr z-score: 1.3

Additional records follow:
SMILES	CBX7 AlphaScr	CBX7 AlphaScr z-score
Cc1cc(C)cc(NS(=O)(=O)c2ccc3[nH]cc(C(=O)NCc4cccnc4)c(=O)c3c2)c1	1.1	1.2
COc1ccc(NC(=O)C2CCCN2S(=O)(=O)c2cccc3cccnc23)cc1OC (stereo not drawn)	1.2	1.3
CCOC(=O)c1c(C)n(C)c2ccc(OCC(O)CN3C(=O)c4ccccc4S3(=O)=O)cc12 (stereo not drawn)	1	0.76
CCc1cccc(CC)c1NC(=O)c1c(C)c(-c2ccc(Cl)cc2Cl)nc2ccccc12	1	0.34
Cc1ccc(Nc2nnc(-c3ccc(C)c(S(=O)(=O)N4CCCCC4)c3)c3ccccc23)cc1	1.1	0.27
COc1ccc(NC(=O)N2CCCC(O)C2)cc1 (stereo not drawn)	1	1.4
O=C(NC1CCCCCCC1)c1ccc2c(c1)N(Cc1ccccc1)C(=O)CS2	0.96	-0.56
Brc1ccc(-c2cc3n(c2)CCn2cccc2-3)cc1	0.68	-2.1
CN(C)c1ccc(-c2nc3cc(NC(=O)COc4ccc(Cl)cc4Cl)ccc3o2)cc1	0.95	-0.11
COc1ccccc1-c1c(C)nn2c(N3CCN(c4cc(C)ccc4C)CC3)cc(C)nc12	1.1	0.88
Clc1cccc(-n2cc(-c3ccccc3)c3c(NCCN4CCOCC4)ncnc32)c1	0.88	-3.1
O=C(CSc1nnc(CNC(=O)c2cccs2)o1)NCc1ccc(F)cc1	1	0.99

Additional compounds:
SMILES	CBX7 AlphaScr	CBX7 AlphaScr z-score
CCCCN(C)CCCNC(=O)Cn1nc(-c2ccc(Cl)cc2)ccc1=O	1	1.9
CCOc1ccc(-n2c(CC)nc3c(cnn3-c3ccc(Cl)cc3)c2=O)cc1	0.79	-3.2
CCSc1nnc(-c2cccnc2)n1-c1ccc(C)c(Cl)c1	1	0.68
Cc1ccc(CCNC(=O)Cn2nc(-c3ccccc3)ccc2=O)cc1	1.1	1.4
Cc1ccc(-n2ncc(C(=O)Nc3ccc(F)cc3)c2C2CCNCC2)cc1	1	0.41
Cc1ccc(NC(=O)CNS(=O)(=O)c2cccs2)cc1F	1	0.86
Cc1ccc(Nc2nc3ccccc3nc2-n2nc(C)cc2C)cc1	3	48
Cc1c(C(=O)NC2CCCCC2)oc2ccc(S(=O)(=O)N3CCC(C)CC3)cc12	1.1	1.3
CCC1Oc2ccccc2N(CC(=O)NCCN2CCN(Cc3ccccc3)CC2)C1=O (stereo not drawn)	1	-0.094
NC(=O)c1nnn(-c2nonc2N)c1CN1CCOCC1	1	0.93
COc1cc(Cl)c(C)cc1NC(=O)c1cn(CC(C)C)c(=O)c2cc(OC)c(OC)cc12	1.1	0.74
Cc1nn(C)c(C)c1S(=O)(=O)N(CC(=O)NCCC(C)C)c1ccc(C(C)C)cc1	0.97	-0.56

Going on with the list:
SMILES	CBX7 AlphaScr	CBX7 AlphaScr z-score
CN(C)C(=O)c1nnc(Cc2ccc(Cl)cc2)o1	0.95	-0.52
COc1cccc(-c2cc(C(=O)NCc3ccc(Cl)cc3)no2)c1	1	0.29
Cc1cccc(NC(=O)c2sc3ncnc(N4CCOCC4)c3c2C)c1	1	0.53
CCCCc1ccc(NC(=O)C(=O)NCCCn2ccnc2)cc1	1.1	1.8
Cc1cccc(CC(=O)Nc2ccc3nc(N4CCN(C)CC4)cc(C)c3c2)c1	0.93	-2.6
Cc1nc(Oc2ccc(F)cc2)c(C(=O)NCc2ccccc2Cl)c(C)c1Cl	1.1	1.6
O=C(CN1C(=O)CSc2ccc(S(=O)(=O)N3CCOCC3)cc21)NCCC1=CCCCC1	1	0.33
COc1ccc(NC(=O)c2ccc(CNc3c(N4CCC(C)CC4)c(=O)c3=O)cc2)cc1Cl	0.99	-0.24
COc1cccc(-c2cc(C(=O)Nc3ccc(F)c(Cl)c3)no2)c1	1	0.29
O=C(Cn1cc(S(=O)(=O)c2ccccc2)c(=O)c2cc(Cl)ccc21)Nc1ccccc1	1.1	2.6
O=C(c1ccc2c(c1)N(Cc1cccc(Cl)c1)C(=O)c1ccccc1S2=O)N1CCCC1 (stereo not drawn)	1	-0.024
CCN(CC)C(=O)c1c[nH]c2ccc(S(=O)(=O)Nc3cccc(OC)c3)cc2c1=O	1.2	1.9

More compounds
SMILES	CBX7 AlphaScr	CBX7 AlphaScr z-score
O=C(CC1C(=O)N(c2ccc(F)cc2)C(=O)N1Cc1cccs1)Nc1ccc(F)cc1 (stereo not drawn)	1.1	2
CCC(C(=O)Nc1cccc(OC)c1)n1nc(-c2ccc(OC)cc2)ccc1=O (stereo not drawn)	0.93	-1.9
Clc1ccc2nc(-c3c[nH]c4ccccc34)c(Nc3ccc4c(c3)OCO4)n2c1	0.74	-4.3
Cc1ccnc(Nc2nc(-c3sc(NC(=O)c4ccccc4)nc3C)cs2)c1	1	0.17
CCCNC(=O)c1ccc2nc(-c3ccc(OCC)cc3)c(-c3ccc(OCC)cc3)nc2c1	1.1	1.9
CCOC(=O)CNC(=O)CNC(=O)c1nn(-c2ccc(OC)c(Cl)c2)c(=O)c2ccccc12	0.95	-0.93
CC(C(=O)O)n1nc(-c2ccccc2)c2cc(Cl)ccc21 (stereo not drawn)	1	0.2
CCC(C)NC(=O)C1(C)CCC(=O)N1Cc1cc(Br)ccc1OC (stereo not drawn)	0.93	-1.2
O=C(CS(=O)(=O)c1[nH]c(-c2ccc(F)cc2)nc1-c1ccccc1)Nc1ccc(F)cc1	1	0.95
COc1ccc(Nc2nnc(-c3ccc(C)c(S(N)(=O)=O)c3)c3ccccc23)cc1	0.97	-0.9
O=C(c1noc2c1CCCCC2)N1CCOCC1	1.1	0.61
O=C(Nc1cccs1)Nc1ccccc1C(F)(F)F	1	-0.002

(continued)
SMILES	CBX7 AlphaScr	CBX7 AlphaScr z-score
Cc1nc2ccc(S(=O)(=O)N(C)CC(=O)Nc3ccc(C)c(F)c3)cc2s1	1.2	1.2
CCCCN(CC)S(=O)(=O)c1ccc2[nH]c(=O)cc(C(=O)NCCCOCC)c2c1	1.1	1.8
CCOc1ccc(Sc2cc(C(=O)NCc3ccccc3OC)c3ccccc3n2)cc1	1.1	4.3
CCCCn1c(-c2cccs2)nc2ccccc21	0.75	-3.9
Cc1nc(Nc2nc3ccccc3s2)nc2c1CCC2	0.98	-0.28
Cc1ccc(-c2cc(C(F)F)n3ncc(C(=O)NCCc4ccc(Cl)cc4)c3n2)cc1	0.98	-0.44
Cc1ccccc1Nc1c(-c2cccs2)nc2cnccn12	1.3	2.6
Cc1ccc(NC(=O)C2CCCN2S(=O)(=O)c2ccc3c(c2)CCC(=O)N3)cc1 (stereo not drawn)	0.96	-0.66
COc1cc(C2C(=O)N(C3CCC(C)CC3)CC(=O)N2Cc2ccccc2Cl)ccc1OC(C)C (stereo not drawn)	0.95	-0.057
Cc1ccc(NC(=O)c2cnc3sccn3c2=O)cc1F	0.87	-1.5
CCC(C)NC(=O)C1CCN(Cc2nc(-c3ccccc3F)oc2C)CC1 (stereo not drawn)	1.2	2.1
Cc1ccc(NC(=O)c2sc3nc(C)nc(N4CCCCC4C)c3c2C)c(Br)c1 (stereo not drawn)	1.1	3.7

Among those listed so far, 4 contain an aryl thioether with sulfur outside any ring.
SMILES	CBX7 AlphaScr	CBX7 AlphaScr z-score
COc1ccc(-c2[nH]c(-c3ccc(C)cc3)nc2SCC(=O)Nc2ccccc2)cc1OC	0.7	-14
O=C(CSc1nnc(CNC(=O)c2cccs2)o1)NCc1ccc(F)cc1	1	0.99
CCSc1nnc(-c2cccnc2)n1-c1ccc(C)c(Cl)c1	1	0.68
CCOc1ccc(Sc2cc(C(=O)NCc3ccccc3OC)c3ccccc3n2)cc1	1.1	4.3

(listing goes on)
SMILES	CBX7 AlphaScr	CBX7 AlphaScr z-score
CCOC(=O)c1cnc2ccc(OCC)cc2c1Nc1ccc(C)c(Cl)c1	0.93	-0.83
CCC1=Nc2cc(C(=O)NC3CCN(Cc4ccccc4)CC3)ccc2Sc2ccc(C)cc21	0.98	-1.1
O=C1CC(c2ccc(F)c(F)c2)c2cc3c(cc2N1)OCO3 (stereo not drawn)	0.93	-0.095
CC1(C)CC(=O)C2=C(C1)Nc1cc3c(cc1C2c1cccc(Cl)c1)OCCO3 (stereo not drawn)	1	0.47
COc1ccc(CNC(=O)CCC(=O)Nc2ccc3nc(N4CCCCC4)cc(C)c3c2)c(OC)c1	1	0.9
Cc1ccc(Nc2c(-c3cccs3)nc3ccc(Cl)cn23)cc1	0.98	-0.62
Cc1oc(-c2ccc(Cl)cc2)nc1CSCC(=O)NCCCOC(C)C	1	1.2
Cc1ccc(CN2CCN(CC(=O)NCc3ccc4c(c3)OCO4)C2=O)cc1	1	0.9
O=C(NC1CC1)C1CCC(=O)N1CCc1ccccc1 (stereo not drawn)	0.99	-0.67
COc1ccc(-c2cc(C(F)(F)F)nc(NCc3ccc(Cl)cc3)n2)cc1OC	1.1	5.4
CCOc1ccc2c(c1)c(=O)c(C(=O)c1ccc(OC)cc1)cn2Cc1ccccc1	0.63	-1.3
Cc1cc(NS(=O)(=O)c2ccc(NC(=O)c3cnc4scc(C)n4c3=O)cc2)nc(C)n1	1.1	2.7

Next section:
SMILES	CBX7 AlphaScr	CBX7 AlphaScr z-score
CCc1nc(NCCCO)c(C#N)c2c1CCCC2	0.76	-0.32
COc1ccc(C2CC(=O)Nc3cc(OC)c(OC)cc32)cc1OC (stereo not drawn)	1.3	1.2
CC1CCc2c(C(=O)NCCCN3CCCC3)csc2C1 (stereo not drawn)	1	0.48
Cn1c(=O)c(=O)n(C)c2cc(S(=O)(=O)N3CCCC3C(=O)N3CCc4ccccc43)ccc21 (stereo not drawn)	1	0.065
Cc1ccc2c(c1)-c1c(cnn1CC(=O)N1CCc3ccccc31)CO2	1.1	1.9
Cc1cc(N2CCN(C)CC2)nc2ccc(NC(=O)CCC(=O)NC(C)CCc3ccccc3)cc12 (stereo not drawn)	0.99	-0.2
CCC(Cc1ccccc1)NC(=O)C1CCN(c2nn3c(=O)cc(C)nc3s2)CC1 (stereo not drawn)	1.1	0.52
COc1ccccc1-c1cc(C(=O)Nc2cccc(Cl)c2C)no1	0.87	-1.5
Cc1cccc2nc(-c3ccc(N(C)C)cc3)c(Nc3ccc4c(c3)OCO4)n12	0.84	-2.7
COc1ccc(-c2nn3cc(-c4ccc(F)cc4)c4c3n2CCCC4)cc1	1	0.043
Cc1ccc(NC(=O)CSc2nc3ccc(N)cc3s2)c(C)c1	0.95	-1.5

Bioassay records as filed in PubChem.
